# From PubChem
# Mtb bLac sens: beta-lactam sensitization of Mtb H37Rv. M. tuberculosis H37Rv growth with meropenem, percent inhibition; hits of this screen are not shown here. inhibition, % at 25 µM. 330,000 compounds, 0.27% hits;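 active means about 74% or more and at least 40 points above the plate without the antibiotic, then above 30% in a dose series; inconclusive means first-round hits that could not be retested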;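 further: growth measured after seven days incubation then overnight dye step; 0% = bacteria only wells and 100% = bacteria with antibiotic; twin plates without the antibiotic show which effects depend on it; some results filed as inactive read as strong as hits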
# Arbovirus inh: antivirals against arbovirus infection | 200,000 compounds, 0.37% hits | AID 1251 | inhibition, % at 10 µM | arbovirus infection cell-based antiviral screen;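 active means inhibition from about 30%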;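 further: bluetongue infection of BSR cells; cell survival read as ATP light after 72 h; 0% = infected wells without compound and 100% = uninfected wells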
# RecA splice inh: blocks M. tuberculosis RecA intein splicing; cell-free RecA intein splicing, fluorescence; inhibition, %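 (about 9 µM by stock and volumes)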; 290,000 compounds, 0.75% hits; AID 2221; in the data active means inhibition above about 30%; inconclusive means no clear call, values can overlap the other calls;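 further: 0% = vehicle wells and 100% = reference inhibitor control wells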
# Target sequence (P9WHJ3 whole entry, looked up, canonical isoform): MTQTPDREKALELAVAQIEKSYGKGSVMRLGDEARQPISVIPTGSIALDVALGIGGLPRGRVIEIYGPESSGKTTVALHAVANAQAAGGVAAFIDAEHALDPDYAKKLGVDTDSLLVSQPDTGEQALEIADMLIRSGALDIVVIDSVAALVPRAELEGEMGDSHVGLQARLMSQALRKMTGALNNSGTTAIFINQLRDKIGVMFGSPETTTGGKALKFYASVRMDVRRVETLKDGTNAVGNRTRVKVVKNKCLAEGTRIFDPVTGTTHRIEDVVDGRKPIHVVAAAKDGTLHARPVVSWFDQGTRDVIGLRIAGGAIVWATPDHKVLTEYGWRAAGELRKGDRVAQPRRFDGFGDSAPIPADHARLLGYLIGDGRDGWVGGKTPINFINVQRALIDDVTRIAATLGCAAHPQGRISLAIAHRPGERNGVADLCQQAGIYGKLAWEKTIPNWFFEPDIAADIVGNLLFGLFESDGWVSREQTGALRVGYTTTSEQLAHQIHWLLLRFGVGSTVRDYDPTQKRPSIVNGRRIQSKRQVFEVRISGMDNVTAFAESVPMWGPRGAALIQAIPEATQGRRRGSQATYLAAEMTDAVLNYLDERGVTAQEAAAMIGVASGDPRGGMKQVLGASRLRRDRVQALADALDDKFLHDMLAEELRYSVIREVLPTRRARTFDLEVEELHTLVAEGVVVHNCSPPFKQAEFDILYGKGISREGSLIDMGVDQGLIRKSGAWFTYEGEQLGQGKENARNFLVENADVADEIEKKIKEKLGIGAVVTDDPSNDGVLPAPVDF
# YopH inh: YopH (Yersinia) phosphatase inhibition; 140,000 compounds, 0.16% hits; inhibition, %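 (about 10 µM by stock and volumes)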; fluorescence Ex485/Em525;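 active means inhibition of 50% or more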;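 further: controls were vehicle for no effect and minimum signal wells for full effect; inactives centre near -20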
# Mtb H37Rv: M. tuberculosis H37Rv growth inhibitors, H37Rv strain (AID 1626); M. tuberculosis H37Rv growth inhibition; higher % means a stronger effect; inhibition, % at 10 µM, or IC50 in µM where a hit was titrated; 220,000 compounds, 0.95% hits;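 active means confirmed in a dose series; inconclusive means inhibition above 80% but not taken into the dose series; inactive means below 80% or under 30% at every dose of the series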;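 further: bacteria incubated seven days before Alamar blue readout; 0% = bacteria only wells and 100% = bacteria with antibiotic wells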
# Arbovirus inh repeat: further read-out of Arbovirus inh, marked with its call; inhibition, %; measured here: 10K subset replicate screen; many hits read low in the repeat;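 first of two repeat runs on a subset; 0% = infected and 100% = uninfected wells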
# Active calls of the source: *; ? = inconclusive; . = not tested or not shown. These rows are one share of the data; rates above refer to the full screens.
SMILES,Mtb bLac sens,Arbovirus inh,RecA splice inh,YopH inh,Mtb H37Rv,others
Cc1nnc(SCC(=O)O)s1,-3,4,-3.0,.,-2%,
CC1CCCN(CC(=O)N2c3ccccc3Sc3ccccc32)C1 (centres undefined),3,-8,-0.7,.,3%,
CCN1CCN(C(c2cccs2)C(C)NC(=O)C(=O)N2CCCCC2)CC1 (centres undefined),-7,.,-0.9,.,.,
CCN1CCN(CCCNC(=O)c2cc3c(=O)oc4ccc(C)cc4c3s2)CC1,3,.,-1.1,.,.,
O=C(Cn1cc(C(F)(F)F)cc(Cl)c1=O)NCc1ccc(F)cc1,-6,.,-1.1,.,.,
COc1ccc(Nc2nc(-c3c[nH]c4ccccc34)cs2)cc1,65,-7,4.8,31,46%,
C/C(=N\NC(N)=O)C1CC(CC(C)C)C(=O)O1 (centres undefined),-7,-4,.,.,6%,
O=C(Nc1ccc2oc(-c3ccncc3)nc2c1)c1c(F)c(F)c(F)c(F)c1F,-4,4,.,-29,-4%,
COc1ccccc1CC(=O)N(CCC#N)CCC#N,-5,7,7.1,33,-7%,
CC(=O)c1cc(F)c(N2CCN(C(=O)COc3ccccc3F)CC2)cc1C,6,11,-2.8,-1,3%,
Cc1ccc(S(=O)(=O)NCc2ccc(C(=O)N3CCN(c4ccccn4)CC3)cc2)cc1,-8,-6,0.2,-17,9%,
CC(C)c1ccc(C2CC(=O)c3cnc(NC(=O)c4ccco4)nc3C2)cc1 (centres undefined),3,.,-3.2,.,.,
CCOC(=O)C1CCN(C(=O)/C=C/c2ccccc2)CC1,-9,4,-0.6,.,-2%,
O=C(NCc1cccc(C(F)(F)F)c1)C1CCN(c2ncccn2)CC1,-1,-1,3.7,-24,-1%,
O=C(NC1CCCCC1)C1(c2ccccc2)CC1(Cl)Cl (centres undefined),5,6,2.4,0,-3%,
C(=N\n1cnnc1)/c1ccc(OC2CSC2)cc1,4,12,-3.5,-38,2%,
CCN1CCN(C(=O)c2ccc3c(c2)S(=O)(=O)c2ccccc2C3=O)CC1,-10,0,-3.0,.,0%,
CC(C)Nc1nc(Cl)nc(NCCOc2ccccc2)n1,-10,-5,0.8,-36,12%,
Cc1cc(C)cc(N(C(=O)c2sc(C)nc2C)C(C(=O)NCc2ccco2)c2ccccc2)c1 (centres undefined),7,3,0.7,7,-3%,
CC(C)=CCc1c(O)cc(O)c2c(=O)c3c(CC=C(C)C)c(O)ccc3oc12,7,.,-3.1,.,8%,
O=C1c2ccccc2C(=O)N1CCSc1nc2ccccc2c(=O)n1CCCN1CCOCC1,2,8,0.6,.,-1%,
Cc1c(Cl)cccc1N1C(=O)C2ON(c3ccccc3)C(c3cccnc3)C2C1=O (centres undefined),1,10,6.3,-47,1%,
CCC(=O)Oc1ccc(C2NC(=O)c3ccccc3O2)cc1OC (centres undefined),-2,.,5.1,.,.,
CCc1ccc(N(CC(=O)NCC2CCCO2)C(=O)CCC(=O)Nc2nccs2)cc1 (centres undefined),2,.,1.3,.,.,
CCC(=O)N1CCN(c2ccc(NC(=O)c3ccc(-c4ccccc4)cc3)cc2)CC1,.,-11,1.3,-2,.,
# Going on with the list.
SMILES,Mtb bLac sens,Arbovirus inh,RecA splice inh,YopH inh,Mtb H37Rv,others
COc1cccc(NC(=O)C(NCC2CCCCC2)c2ccccc2)c1 (centres undefined),6,8,7.6,-8,1%,
O=C(NCc1ccccc1)c1cnc(Cl)c(Cl)c1,-8,.,2.1,.,.,
C/C(=N\NC(=O)c1ccc2c(c1)OCO2)c1ccc2c(c1)OCO2,1,4,-1.5,.,0%,
O=C(O)c1c2c(nc3ccc(S(=O)(=O)N4CCC(C(=O)NCc5ccc(Cl)cc5)CC4)cc13)CCCC2,-16,.,0.9,.,.,
COc1ccc(OC)c(NC(=O)c2cnn(-c3ccccc3)c2C)c1,1,.,1.1,.,.,
Cc1ccc(-c2cc(C(=O)N3CCN(c4ncccn4)CC3)c3ccccc3n2)cc1,69,9,7.9,-45,11%,
N#Cc1ccccc1NC(=O)COC(=O)c1ccc2c(c1)OCCO2,2,14,1.7,-5,0%,
O=C(O)C1CC=CCC1C(=O)Nc1cccc(F)c1 (centres undefined),0,1,-1.9,-13,-5%,Arbovirus inh repeat=-1
CC12CN3CCN(CC(C3)/C1=N\NC(=O)Nc1cccc(Cl)c1)C2,-8,2,-1.4,.,66%,
O=C(Cn1nc2ccccc2n1)N/N=C/c1ccc(F)cc1,0,.,0.9,.,1%,
O=C(O)c1ccc(CSc2nc(-c3ccc(Cl)cc3)cc(C(F)(F)F)n2)cc1,4,-18,1.2,-24,3%,
Cc1cccc(NC(=S)NNC(=O)Cc2ccccc2)c1,-6,5,-2.8,-22,7%,
CC12CC3CC(C)(C1)CC(C(=O)NC(=S)N1CCCCC1)(C3)C2,72,-9,4.0,-12,?,
Cc1ccccc1NC(=S)/C(=C(\[O-])c1cc(C)n(Cc2ccccc2Cl)c1C)[n+]1ccccc1,11,12,0.9,.,9%,
COc1ccc(OC)c(CN2CCC(CNC(=O)Nc3cccc(Cl)c3)CC2)c1,-2,-8,1.3,.,7%,
Cc1ccc(S(=O)(=O)N(C)c2ccc(OCC(=O)NC3=NCCS3)cc2)cc1,7,-3,-2.0,.,-7%,
CCOC(=O)c1cccc(NC(=O)CSc2nc(N)cc(N)n2)c1,-8,-1,3.4,-12,-16%,
COc1ccc(C(=O)C(=O)c2ccc(OCCO)cc2)cc1,-1,.,1.3,.,.,
CC1CCCN(C2=C(Cl)C(=O)N(c3cccc(Cl)c3)C2=O)C1 (centres undefined),7,-2,70*,-20,2%,
CCOc1cc(C(=S)N2CCC(O)CC2)ccc1OS(=O)(=O)c1ccc(Br)cc1,1,-26,.,-22,1%,
COc1ccc(NC(=O)CN(Cc2ccccc2)S(C)(=O)=O)c(OC)c1,-11,0,0.1,-3,-5%,
CCn1cc(/C=C(\NC(=O)c2ccccc2Cl)C(=O)NCCN2CCOCC2)c2ccccc21,-6,.,1.1,.,.,
O=C(NCc1ccc(Cl)cc1)c1cc(=O)[nH]c2ccc(S(=O)(=O)N3CCOCC3)cc12,-4,.,-2.1,.,-1%,
CCCOC(=O)c1ccc(NC(=O)c2cnccn2)cc1,97,-2,-1.8,-16,15µM*,
COc1ccc(N(CC(=O)NCc2ccncc2)S(=O)(=O)c2ccc(C)c([N+](=O)[O-])c2)cc1,-3,.,6.0,.,-4%,

# Four entries already listed, sorted by count of non-hydrogen atoms, ascending:
SMILES,Mtb bLac sens,Arbovirus inh,RecA splice inh,YopH inh,Mtb H37Rv,others
CCCOC(=O)c1ccc(NC(=O)c2cnccn2)cc1,97,-2,-1.8,-16,15µM*,
C/C(=N\NC(=O)c1ccc2c(c1)OCO2)c1ccc2c(c1)OCO2,1,4,-1.5,.,0%,
CCn1cc(/C=C(\NC(=O)c2ccccc2Cl)C(=O)NCCN2CCOCC2)c2ccccc21,-6,.,1.1,.,.,
O=C(O)c1c2c(nc3ccc(S(=O)(=O)N4CCC(C(=O)NCc5ccc(Cl)cc5)CC4)cc13)CCCC2,-16,.,0.9,.,.,

# Reprinted at random: seven entries already listed
SMILES,Mtb bLac sens,Arbovirus inh,RecA splice inh,YopH inh,Mtb H37Rv,others
C/C(=N\NC(=O)c1ccc2c(c1)OCO2)c1ccc2c(c1)OCO2,1,4,-1.5,.,0%,
N#Cc1ccccc1NC(=O)COC(=O)c1ccc2c(c1)OCCO2,2,14,1.7,-5,0%,
COc1ccc(OC)c(NC(=O)c2cnn(-c3ccccc3)c2C)c1,1,.,1.1,.,.,
Cc1cccc(NC(=S)NNC(=O)Cc2ccccc2)c1,-6,5,-2.8,-22,7%,
Cc1ccc(-c2cc(C(=O)N3CCN(c4ncccn4)CC3)c3ccccc3n2)cc1,69,9,7.9,-45,11%,
COc1ccc(C(=O)C(=O)c2ccc(OCCO)cc2)cc1,-1,.,1.3,.,.,
CC1CCCN(C2=C(Cl)C(=O)N(c3cccc(Cl)c3)C2=O)C1 (centres undefined),7,-2,70*,-20,2%,

# Next part.
SMILES,Mtb bLac sens,Arbovirus inh,RecA splice inh,YopH inh,Mtb H37Rv,others
CCCCn1c(N)c(N(CC(C)C)C(=O)C2CCN(S(=O)(=O)c3ccc(F)cc3)CC2)c(=O)[nH]c1=O,-3,.,-2.8,.,.,
NC(=O)c1nn(-c2ccccc2)nc1NC(=O)CN1CCOCC1,-4,.,-3.2,.,-1%,
CCN1CCN(c2nc3ccccc3nc2C(C#N)S(=O)(=O)c2ccc(C)c(C)c2)CC1 (centres undefined),-9,22,-3.3,-20,.,
CCC(=O)N1CCc2cc(S(=O)(=O)NCCC(=O)N3CCN(c4cccc(C)c4)C(C)C3)ccc21 (centres undefined),2,.,-1.5,.,.,
CCOc1[nH]n(-c2ccc(Cl)cc2)c(=O)c1C=NCc1cccnc1,89,-8,-3.5,.,18%,
COCCNC(=S)N/N=C(\C)c1ccc(O)cc1,2,1,-1.7,-27,-4%,
Cc1c(-c2ccccc2)nc(N)c(C#N)c1-c1cccnc1,-7,.,-2.5,.,4%,
CC(C)NC(=O)c1onc(CSc2ccccn2)c1C(=O)NC(C)C,-22,.,0.0,.,11%,
CCOc1ccc(S(=O)(=O)N2CCN(C(=S)NC3CC3)CC2)cc1,1,-3,0.3,.,6%,
Cc1nc(C)c(N)c(=O)[nH]1,-4,-1,-3.2,.,3%,
Cc1ccc(-c2nsc3c(N4CCC(C(N)=O)CC4)ncnc23)cc1,41,11,-0.5,-47,.,
COc1ccc(-c2cccc([C@H]3[C@@H]4C=CCC[C@@]4(C)C(=O)N3Cc3ccccc3)c2)cc1,6,.,15,.,16%,
O=C1CC(c2ccccc2)CC(O)=C1C=NC1CCCC1 (centres undefined),-3,3,0.1,-63,1%,
COc1ccc(C(=O)NC2CC(C)(C)Cc3c2cnn3-c2ccccc2)c(OC)c1 (centres undefined),28,.,2.2,.,.,
[O-]c1ccccc1-[n+]1c(-c2ccccc2)cc(-c2ccccc2)cc1-c1ccccc1,100,.,15,.,.,
Cc1ccc(C(=O)NCc2ccccn2)cc1S(=O)(=O)N1CCCCC1,-10,.,0.2,.,.,
CN(C(=O)c1cc(-c2ccc3c(c2)OCO3)on1)c1ccccc1,9,.,1.7,.,.,
Cc1cccc(OCCNC(=O)c2cncc(Br)c2)c1,-1,-3,6.0,-26,5%,
Cc1nn(Cc2ccc(Cl)cc2)c(C)c1N,-2,-2,8.9,-74,-5%,
CCOC(=O)c1c(C)nn(Cc2cccc(Cl)c2)c1N,2,-11,0.4,-54,8%,
CCc1cccc(CC)c1NC(=O)C1CN(S(=O)(=O)c2ccccc2)CCN1S(=O)(=O)c1ccccc1 (centres undefined),-5,5,0.6,-22,12%,
O=C(Cn1c(=O)oc2cc(S(=O)(=O)N3CCCCC3)ccc21)N1CCc2ccccc2C1,-3,-1,0.2,-9,10%,
O=C(CSc1nc2ccsc2c(=O)n1-c1ccccc1)N1CCCC1,-6,-1,1.0,-38,-4%,
COc1ccccc1C/C(N)=N/OC(=O)c1ccc(C)c([N+](=O)[O-])c1,7,4,2.4,-25,4%,
O=C(CC1C(=O)NCCN1Cc1ccc(-c2ccccc2)cc1)NCCCn1ccnc1 (centres undefined),-3,.,1.9,.,-1%,
# Continued:
SMILES,Mtb bLac sens,Arbovirus inh,RecA splice inh,YopH inh,Mtb H37Rv,others
Cc1cccc(-c2noc(CCC(=O)NC3CCCC3)n2)c1,-3,.,-0.6,.,.,
O=C(CSc1nnc(COc2ccccc2F)n1-c1ccccc1)NC1CCS(=O)(=O)C1 (centres undefined),8,1,-1.0,-23,-5%,
CCN(c1ccccc1)c1nc2ccsc2c(=O)s1,-13,9,14,-7,1%,
COCCCN1CC(=O)N2C(c3cccc(C)c3)c3[nH]c4ccccc4c3C[C@H]2C1=O (some centres undefined),5,.,-0.6,.,.,
COc1ccc(NC(=O)CC2C(=O)NCCN2C(=O)c2ccc(N(C)C)cc2)cc1 (centres undefined),-4,.,3.7,.,-20%,
O=C(Nc1ccc(Oc2nnc(-c3ccccc3)c3ccccc23)cc1)c1ccccc1,8,-4,0.8,-32,13%,
CC(O)/C=C/C1OC(=O)CC1Nc1ccc(C=O)cc1 (centres undefined),-4,6,-3.1,.,-2%,
CN(C)CCCOC(=O)COc1ccc(C(C)(C)C)cc1,1,-7,-0.4,-24,-2%,
CN(C)CCN(Cc1cc2cc3c(cc2[nH]c1=O)OCO3)C(=S)NCc1ccco1,-7,6,3.4,.,4%,
CC(C)C(NC(=O)c1ccc(C(C)(C)C)cc1)C(=O)Nc1cccc(S(N)(=O)=O)c1 (centres undefined),5,-4,0.7,.,2%,
Cc1nc(-c2ccccc2)sc1C1(C)CC(c2cccnc2)=NO1 (centres undefined),.,.,1.3,.,8%,
CC(C)(C)OC(=O)N1CCC(C(=O)N2CCC[C@H]2C(=O)O)CC1,7,-7,-1.6,-34,-1%,
FC(F)(F)c1nnc(-c2ccccc2)nc1N1CCCC1,-1,-1,3.9,.,-1%,
